CDC25B-CDK2 inh = human CDC25B-CDK2/CyclinA binding inhibition; P30305+P24941; HTRF CDC25B-CDK2/CyclinA binding, anti-His/anti-Flag; active compounds read high; z-score (concentration not given with the values); 0.72% of 94,000 active; AID 1259370;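 also: score is relative to mean and SD of negative controls; strong numbers were not always called active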
TAR Tat displ = HIV-1 TAR-Tat binding disruption | 0.6% of 100,000 active | z-score (test concentration not listed) | AID 1259389 | HIV-1 TAR RNA, Tat peptide displacement FRET; active compounds read high;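 also: score is relative to mean and SD of negative controls; some compounds called inactive have numbers as strong as hits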
* hit, by the source's call; x = no result given; & = joins results of further samples.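 The calls were made as follows: active = z-score from 3 up in half or more of its runs; inactive = the rest.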

SMILES	CDC25B-CDK2 inh	TAR Tat displ
O=C1NCCCC1C(=O)NCC(O)CO (centres undefined)	-1.77	0.08
CCOc1nc(-c2ccccc2)c2cc(C)ccc2n1	x	1.61
COCCCNC(=O)Nc1ccc2c(c1)N(C)C(=O)CS2	-1.6	-0.22
COc1cc(C2C(C(=O)OC(C)C)=C(C)NC3=C2C(=O)CCC3)cc(Cl)c1O (centres undefined)	-2.92	0.75
Cc1cccc(OCc2nnc3sc(-c4ccccc4)nn23)c1	-0.44	2.65
Cc1c(C(=O)NCc2ccccn2)sc2nc3n(c(=O)c12)CCCCC3	x	1.92
CC(C)C(=O)N1c2ccccc2NC2=C(C(=O)CC(C)(C)C2)C1c1cccs1 (centres undefined)	x	1.64
O=[N+]([O-])/C=C/c1c(-c2ccc3ccccc3c2)[nH]c2ccccc12	-0.09	x
COc1cccc2c1OC(c1ccc(SC)cc1)N1N=C(c3cccnc3)CC21 (centres undefined)	0.63	x
Cn1c(=O)c2c(nc(N3CCCC3)n2Cc2ccccc2)n(C)c1=O	1.14	x
CN1CCN(C(=O)c2cc3c(s2)-c2ccccc2SC3)CC1	-0.88	1.17
O=C(CSc1nnc2ccccn12)Nc1cccc(-c2nc3ccccc3s2)c1	-1.23	-1.73
CSc1ccc(CNC(=O)C2CCN(c3nn4c(=O)c5c(nc4s3)CCCC5)CC2)cc1	x	0.77
CC1CN(C)C(C)C(/C=C(/C#N)C(N)=S)C1=O (centres undefined)	7.89*	x
O=C(Nc1cccc(C(=O)NCc2ccc3c(c2)OCO3)c1)C1=CSCCO1	x	2.24
CCc1nc(C)cn1S(=O)(=O)c1ccc(Br)c(OC)c1	-1	0.75
COc1ccc(Cl)cc1-n1nnc(-c2nc(-c3ccc(Cl)cc3)no2)c1N	x	1.1
CCOc1ccc(CN(CC)Cc2cc(=O)n3[nH]c(-c4ccc(C)cc4)cc3n2)cc1	x	-1.92
Cc1noc(C(=O)Nc2cc(Br)ccc2O)c1Cl	-1.05	0.1
CSc1cccc(NS(=O)(=O)c2cc3c(cc2C)NC(=O)CO3)c1	x	2.49
CC1CC(=O)Nc2ccccc2N1S(=O)(=O)c1cn(C)cn1 (centres undefined)	0.52	x
CN(C)CCCN(Cc1ccc2c(c1)OCO2)C(=O)NC1CCCCC1	-2.07	-0.36
CCOC(=O)c1c(C)oc2ccc(OCc3ccc(F)cc3)cc12	-3.97	1.33
CCN(CC)Cc1cc(=O)n(Cc2cc(=O)n3ccccc3n2)c2c1c(C)nn2C	x	1.72
COc1ccc(-c2nc3sc4c(c3c(=O)[nH]2)CCCC4)cc1	-0.96	0.03

Some of the entries so far, with two lines to a compound:
Value order: CDC25B-CDK2 inh	TAR Tat displ
> COc1cc(C2C(C(=O)OC(C)C)=C(C)NC3=C2C(=O)CCC3)cc(Cl)c1O (centres undefined)
→ -2.92	0.75
> Cc1cccc(OCc2nnc3sc(-c4ccccc4)nn23)c1
→ -0.44	2.65
> Cc1c(C(=O)NCc2ccccn2)sc2nc3n(c(=O)c12)CCCCC3
→ x	1.92
> CC(C)C(=O)N1c2ccccc2NC2=C(C(=O)CC(C)(C)C2)C1c1cccs1 (centres undefined)
→ x	1.64
> O=[N+]([O-])/C=C/c1c(-c2ccc3ccccc3c2)[nH]c2ccccc12
→ -0.09	x
> COc1cccc2c1OC(c1ccc(SC)cc1)N1N=C(c3cccnc3)CC21 (centres undefined)
→ 0.63	x
> Cn1c(=O)c2c(nc(N3CCCC3)n2Cc2ccccc2)n(C)c1=O
→ 1.14	x
> CN1CCN(C(=O)c2cc3c(s2)-c2ccccc2SC3)CC1
→ -0.88	1.17
> O=C(CSc1nnc2ccccn12)Nc1cccc(-c2nc3ccccc3s2)c1
→ -1.23	-1.73
> CSc1ccc(CNC(=O)C2CCN(c3nn4c(=O)c5c(nc4s3)CCCC5)CC2)cc1
→ x	0.77
> CC1CN(C)C(C)C(/C=C(/C#N)C(N)=S)C1=O (centres undefined)
→ 7.89*	x
> O=C(Nc1cccc(C(=O)NCc2ccc3c(c2)OCO3)c1)C1=CSCCO1
→ x	2.24
> CCc1nc(C)cn1S(=O)(=O)c1ccc(Br)c(OC)c1
→ -1	0.75
> COc1ccc(Cl)cc1-n1nnc(-c2nc(-c3ccc(Cl)cc3)no2)c1N
→ x	1.1
> CCOc1ccc(CN(CC)Cc2cc(=O)n3[nH]c(-c4ccc(C)cc4)cc3n2)cc1
→ x	-1.92
> Cc1noc(C(=O)Nc2cc(Br)ccc2O)c1Cl
→ -1.05	0.1
> CSc1cccc(NS(=O)(=O)c2cc3c(cc2C)NC(=O)CO3)c1
→ x	2.49

The list goes on:
SMILES	CDC25B-CDK2 inh	TAR Tat displ
CNCC[C@H](Oc1cccc2ccccc12)c1cccs1	x	1.57&-1.1
CC(C)N1CCS(=O)(=O)CC1	-0.98	x
CCOC(=O)c1sc(NC(=O)C(CC)Sc2nc3ccccc3o2)nc1C (centres undefined)	-1.14	1.12
Cc1cccn2c(Nc3ccc4c(c3)OCCO4)c(-c3ccc(N4CCOCC4)cc3)nc12	-2.63	1.14
COc1cccc(-c2noc(N)c2C#N)c1	1.45	0.89
Cc1ccc(C)c(NC(=S)NC(NC(=O)c2ccc(F)cc2)C(Cl)(Cl)Cl)c1 (centres undefined)	-1.24	x
CSc1cccc(NS(=O)(=O)c2cc3c(cc2Cl)NC(=O)CO3)c1	x	0.86
CCOC(=O)C1CCN(c2c(NCCCN(C)C3CCCCC3)c(=O)c2=O)CC1	-1.47	3.34
O=C(NNC(=O)c1cccc2ccccc12)c1cncc(-c2cccs2)c1	-4.09	x
CCCN1C(=O)CN(C2CCCCCC2)C(=O)C1c1ccc(C)cc1 (centres undefined)	-1	x
C=CCNC(=O)c1cnn2c(C(F)F)cc(-c3ccccc3)nc12	-0.97	1.24
Cc1cc(C(=O)O)nc2ccccc12	1.13	4.79
O=C(Cn1ncc2c1-c1ccccc1OC2)N1CCC(N2CCCCC2)CC1	-0.36	0.47
COC(=O)C1=C(C(=O)OC)SC(=C2C(=S)C(C)(C)N(C(=O)C(C)C)c3ccccc32)S1	-2.22	1.7
CC1Cc2cc(S(=O)(=O)N3CCC(C(=O)NCc4ccccn4)CC3)ccc2N1C(=O)C1CCC1 (centres undefined)	x	-0.33
O=C(Nc1ccc2nc(SCC(=O)N3CCc4ccccc43)sc2c1)c1cccs1	-0.77	2.95
CCOc1ccc2nc(N(CCN(CC)CC)C(=O)c3cccs3)sc2c1	x	0.28
COc1ccc(S(=O)(=O)NCCc2csc3nc(-c4ccc(Cl)cc4)nn23)cc1OC	x	0.88
COc1ccccc1N1CCN(C2CCN(Cc3cc(OC)c(OC)c(OC)c3)CC2)CC1	-1.26	x
O=S(=O)(Nc1ccc(N2CCCS2(=O)=O)cc1)c1ccc(Cl)cc1	x	1.77
Cn1c(SCC(=O)c2ccc3c(c2)CCCO3)nnc1-c1ccc2c(c1)OCCCO2	x	0.21
Cc1ccc(S(=O)(=O)Nc2ccc3[nH]c(=O)sc3c2)cc1C	x	0.59
CC(C)c1ccc(C2Nc3ccccc3-n3cc4c(=O)n(C)c(=O)n(C)c4c32)cc1 (centres undefined)	2.75	-3.68
O=C(c1cnn(-c2ccc(F)cc2F)c1C1CCNCC1)N1CCN(c2ccccn2)CC1	x	0.96
CCCOC(=O)c1cccc(N2CC(O)=C(c3nc4ccccc4n3C)C2=N)c1	-1.63	-0.22
SMILES	CDC25B-CDK2 inh	TAR Tat displ
Cc1ccc(-n2nnc(-c3nc(-c4ccc5c(c4)OCO5)no3)c2C)cc1	x	0.37
Fc1ccc(-c2csc(NCc3ccco3)n2)cc1	-1.37	-1.04
COC(=O)C1=C(Nc2ccccc2NC(=O)COCC(=O)O)CSC1	-2.01	x
COc1ccc(N2CCCS2(=O)=O)cc1NS(=O)(=O)c1cc(C)ccc1OC	x	0.4
Cc1ccc(-c2c(NC3CCCC3)c(=O)c2=O)cc1C	x	0.51
CCCCn1c(Cc2ccccc2)nc2ccccc21	-0.67	0.53
CC(=O)c1c(C)nn(CC(O)Cn2c3c(c4cc(C)ccc42)CCCC3=O)c1C (centres undefined)	-0.44	x
CC(Oc1ccccc1F)C(=O)Nc1nc2ccc(S(C)(=O)=O)cc2s1 (centres undefined)	-0.94	0.05
Nc1ccccc1C(=O)NCCN1CCNC1=O	-1.53	x
Cc1ccc(C(=O)N2CCN(Sc3ncnc4sccc34)CC2)cc1	-1.05	x
O=c1[nH]nc(-c2ccc(F)cc2)c2c1Nc1nnnn1C2c1ccccc1 (centres undefined)	-0.91	-0.3
CNc1nc(C(N)=O)c(NC(=O)c2cc(-c3ccccc3)nc3ccccc23)s1	x	1.01
Cc1cc2n(n1)CCC(=O)N2CC(=O)NCc1ccco1	x	0.58
C=CCNC(=O)c1cc2c(=O)n3cccc(C)c3nc2s1	-1.47	x
CC(C(=O)NC1CCCCC1)n1ncn2cccc2c1=O (centres undefined)	-0.27	2.11
CCOC(=O)c1c(N(C)S(C)(=O)=O)sc(C)c1C	-5.76	x
COCn1c(COc2ccc3ccccc3c2)nc2ccccc21	-0.16	1.68
CCSc1nnc(-c2ccc(C)c(S(=O)(=O)NCc3cccnc3)c2)c2ccccc12	-0.05	0.9
CCCC(=O)OC1=CN(Cc2ccccc2)S(=O)(=O)c2ccccc21	-1.07	1.63
O=C(O)c1cc(-c2cc(Br)ccc2O)nc2n[nH]c(-c3ccccc3)c12	x	3.94
CC(c1ccccc1)c1nnc(N)s1 (centres undefined)	-0.57	0.24
CC(C)CCCC(C)[C@H]1CCC2C3C[C@@H](O)[C@@]4(O)C[C@@H](O)CC[C@]4(C)C3CC[C@@]21C (some centres undefined)	x	0.85
Cc1ccc2nc(C3=C(O)CN(C4CCCC4)C3=N)[nH]c2c1	-3.02	1.68
Cc1nn(-c2ccc(N3CCCCC3)nn2)c(C)c1CCC(=O)N1CCCC1	x	0.51
O=C1CCCC2=C1C(c1ccc(F)cc1)N(C(=O)c1ccccc1)c1ccccc1N2 (centres undefined)	-1.09	1.81
SMILES	CDC25B-CDK2 inh	TAR Tat displ
CSCC[C@@H](C(=O)NC(C)c1cccs1)N1Cc2ccccc2C1=O (some centres undefined)	-1.53	x
N#CC(C#N)=C1CCC(=C(C#N)C#N)CC1	-1.78	x
CC(=O)NC1=NN(C(C)=O)C(c2ccc(OCCOc3ccc(C)cc3C)cc2)S1 (centres undefined)	0.5	0.48
COc1ccc(N2CCN(CCNc3ncnc4nc[nH]c34)CC2)cc1	-0.6	x
CNC(=O)c1ccc(CS(=O)c2ccc(Cl)cc2)o1 (centres undefined)	x	1.55
CCC(=O)Nc1nnc(SCc2cc(=O)n3c4c(sc3n2)CCCC4)s1	x	0.17
CCOC(=O)N1CCN(C(=O)c2oc3ccc(S(=O)(=O)N4CC(C)CC(C)C4)cc3c2C)CC1 (centres undefined)	-0.57	0.9
O=C(NCCc1ccccc1)c1cnn2c1NC(c1ccc(Br)cc1)CC2C(F)(F)F (centres undefined)	-0.25	1.17
CC(=O)N1CCSc2ccc(S(=O)(=O)Nc3cc(F)ccc3F)cc21	x	0.57
CC(C)N1CCC(=O)N(c2ccc(C(C)(C)C)cc2)C1=O	-0.95	x
Cc1c2cnn(-c3ccccc3)c(=O)c2c(C)n1C(C)C(=O)Nc1ccc2c(c1)OCO2 (centres undefined)	1.14	2.02
O=C(CC1(O)C(=O)N(Cc2ccc3c(c2)OCO3)c2ccccc21)c1ccc(F)cc1 (centres undefined)	-1.69	x
COc1cc2c(c(OC)c1)C(c1ccc(SC)cc1)C1=C(CC(C)(C)CC1=O)N2 (centres undefined)	-1.01	-0.95
C(#Cc1csc2ccccc12)c1ccccc1	-0.59	-0.6
COc1ccc(N2CC(C)Cn3c2nc2c3c(=O)n(CC(=O)O)c(=O)n2C)cc1 (centres undefined)	-1.4	-0.24
COc1ccccc1NC(=O)Nc1nnc(N2CCc3ccccc32)s1	-0.27	2.27
CSc1ccc(CCNC(=O)c2noc3c2CCc2sccc2-3)cc1	x	-0.45
COc1ccc(N2CCN(C3OC(=O)c4ccccc43)CC2)cc1 (centres undefined)	-1.2	x
CCc1nn(CC(=O)NC(C)C)c(=O)c2cc3cc(F)ccc3n12	-0.97	-0.5
O=C(O)c1ccc(-c2nnn(Cc3ccc(F)cc3)n2)cc1	0.44	7.16
COc1cc(Br)cc(CC2C(=O)Nc3ccccc32)c1OC (centres undefined)	0.15	-0.01
CCN(CC)S(=O)(=O)c1ccc2c(c1)C(C)(C)C(=O)N2C	x	2.18
COc1cccc(-c2cc(NCc3ccc4c(c3)OCO4)nc(N)n2)c1	x	1.87
CC1CCN(S(=O)(=O)c2ccc3c(c2)C(C)(C)C(=O)N3)CC1	x	0.73
Cc1nn(-c2ccccc2)nc1C(=O)ONC(=O)Cc1ccccc1	-0.94	x
SMILES	CDC25B-CDK2 inh	TAR Tat displ
Cc1ccc2ncnc(Nc3cccc(Cl)c3)c2c1	0.34	x
COc1ccc(S(=O)(=O)c2nnn(-c3ccccc3F)c2C)cc1	1.5	-0.17
COc1ccc(C2=NS(=O)(=O)N(C)C(C(=O)N3CCOCC3)=C2)cc1OC	-1.42	1.22
O=C(CN1CCN(Cc2ccccc2F)C1=O)N1CCCC1	-1.67	x
CC1CC(C)CN(C(=O)C2CCC(CNc3c(N4CCCCC4)c(=O)c3=O)CC2)C1 (centres undefined)	-1.06	0.21
CCN(CC)CCNC(=O)Nc1cn(C)c(=O)c2ccccc12	x	-2.17
Cc1ccc(NC(c2ccccc2)c2nnc(-c3ccccc3)o2)cc1F (centres undefined)	1.15	2.06
Cc1nc2ccccc2nc1C(N)=O	-1.75	-0.33
O=C(NCc1ccc(F)cc1)C(=O)NCC(c1cccs1)S(=O)(=O)c1cccs1 (centres undefined)	x	1.13
Cc1ccc(CNS(=O)(=O)c2ccc3c(c2)C(C)(C)C(=O)N3C)cc1	x	1.04
O=C(CCSc1nc(-c2ccc3c(c2)OCO3)cc(C(F)(F)F)n1)N1CCCC1	-1.44	-0.07
CCOC(=O)c1cccc(-n2nnc3c(sc4nc(C)cc(COC)c43)c2=O)c1	-1.91	2.58
COc1ccc(N(Cc2cc3ccccc3[nH]c2=O)S(C)(=O)=O)cc1	-1.86	1.96
CCC1CCCCN1CCCNC(=O)C1CCN(c2nnc(-n3cccc3)s2)CC1 (centres undefined)	-1.02	0.91
C=CCNc1ncnc2sc(C)c(C)c12	-1.28	x

Screening data: PubChem BioAssay, Center for Chemical Genomics, University of Michigan
